miR-21 FLuc: raises the signal of a miR-21 reporter. AID 2288. HeLa miR-21 FLuc reporter, luciferase, 48 h. Potency, µM (series often up to 38.3 µM), for the others: at the highest dose reporter change, positive = more light. 340,000 tested, under 10 active; active = well fitted rising curve with a large enough effect; inconclusive = small, poorly fitted or top-dose-only effect; inactive = no such curve, though single readings can be large or run the other way;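 also: % of control where 0% means no effect; miR-21 action dims this reporter so a rising signal means less miR-21 action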
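HeLa cells stably expressing CMV-driven firefly luciferase with a downstream miR-21 binding sequence, endogenously expressing miR-21, were treated with titrations (up to about 40uM final) for 48 hours at 37 degree Celsius. Luciferase luminescence was read after lysis.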
Rango release inh: prevents RanGTP from dissociating the Rango-importin beta complex | hit rate 0.071% among 340,000 | Potency, µM (series often up to 46.1 µM), without a hit: at the highest dose activity change, negative = inhibition | AID 540253 | Biochemical FRET Rango-importin beta, RanGTP-induced dissociation | O95149+P62826; active means falling FRET ratio curve, often poorly fitted, with flat reads before Ran was added; inconclusive means other falling curves, or compound fluorescence or quenching; inactive means flat or rising ratio curve;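 also: potency is read from the fitted curve at half-maximal effect; % of control where 0% means no effect; nearly all actives have a fitted effect of over 45% in size; -100% = wells without RanGTP and RCC1; the record marks most hits as doubtful in a second field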
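Rango (0.1 uM)–importin beta (0.25 uM) complex; RanGTP-RCC1 trigger; 45 min RT; CFP/YFP FRET read.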
GLA inh pH 4.5: blocks human alpha-galactosidase A at pH 4.5; P06280; purified enzyme, 4-MU-alpha-Gal fluorescence, pH 4.5; activity change, negative = inhibition, % at 105 µM; 230,000 tested, under 10 active; AID 1467; inconclusive = small, poorly fitted or top-dose-only inhibition, or a rising curve; inactive = flat fitted curve, though single readings scatter; no compound was filed as active;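 also: 0% = full activity with enzyme and -100% = basal without enzyme; dose as in the result columns while the protocol names 77 µM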
Target sequence (P06280 whole entry, looked up): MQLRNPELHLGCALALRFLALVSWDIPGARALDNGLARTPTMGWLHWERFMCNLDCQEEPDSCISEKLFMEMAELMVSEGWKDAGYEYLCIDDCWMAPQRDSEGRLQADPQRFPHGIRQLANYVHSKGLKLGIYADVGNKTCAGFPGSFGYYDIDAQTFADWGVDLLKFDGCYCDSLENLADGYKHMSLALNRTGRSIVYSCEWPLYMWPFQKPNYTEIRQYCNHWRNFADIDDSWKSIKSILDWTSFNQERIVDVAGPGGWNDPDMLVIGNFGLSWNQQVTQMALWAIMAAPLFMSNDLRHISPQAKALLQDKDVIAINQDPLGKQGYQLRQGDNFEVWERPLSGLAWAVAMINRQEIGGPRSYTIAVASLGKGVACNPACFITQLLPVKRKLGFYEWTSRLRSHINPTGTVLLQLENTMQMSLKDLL
Rango complex inh: inhibitors of Rango-importin beta complex formation | Rango CFP/YFP FRET sensor + importin beta, 45 min | Potency, µM (highest dose often 92.2 µM), inactives show at the highest dose inhibition of complex formation | hit rate 0.031% among 340,000 | AID 540263; active = rising FRET ratio curve, often small or poorly fitted; inconclusive = mostly compound fluorescence or quenching in the first reads; inactive = flat curves in all reads;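 also: potency is read from the fitted curve at half-maximal effect; 0% = DMSO wells and 100% = buffer wells lacking importin beta; nearly all actives have a fitted effect of over 15% in size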
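Inhibition scored from the CFP 486 nm/YFP 530 nm FRET ratio 45 min after adding 0.125 microM importin beta to 50 nM Rango biosensor preincubated 5 min with compound (room temperature, PBS with DTT, Tween-20, BSA). No-importin wells as positive control.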
An asterisk follows results filed as active; ? = inconclusive; . = not tested or not shown; & = joins results of further samples. Some of the compounds tested; count on the stated rates, not on these rows.

Under each structure – miR-21 FLuc | Rango release inh | GLA inh pH 4.5 | Rango complex inh
COc1cccc(C2c3[nH]c4ccccc4c3C[C@H]3C(=O)N(c4ccccc4C(=O)N4CCC[C@H]4C(=O)O)C(=O)N23)c1 (some centres undefined)
 : 0% | ? | . | ?
Cc1ccc(Nc2ncnc(-n3cccc3)n2)cc1Cl
 : -80% | -1% | -2 | -5.2%
CCC(=O)Nc1ccc2nc3c(=O)[nH]c(=S)[nH]c3nc2c1
 : -2% | -10% | . | ?
CC(NC(=O)C(=O)NCCc1c[nH]c2ccccc12)c1ccccc1 (centres undefined)
 : 5% | 2% | . | -2.7%
CCOC(=O)c1ccc(NCC(O)COc2ccccc2)cc1 (centres undefined)
 : -12% | 6% | 0 | 0.8%
COc1ccc(C2C(C(=O)c3ccco3)=C(O)C(=O)N2CCc2ccccc2)cc1OC (centres undefined)
 : -29% | 0% | -9 | -3.9%
O=C(NN1C(=O)c2ccc3c4c(ccc(c24)C1=O)CC3)c1ccc(Br)cc1
 : -5% | 9% | 8 | -2.9%
CCc1ccc(NC(=O)Cn2c(=O)n(CCCC(=O)NCc3ccco3)c(=O)c3ccccc32)cc1
 : -5% | 2% | -3 | -3.2%
CC1(C)Cc2c(cnn2-c2ccc(F)cc2)C(NC(=O)CCN2CCCCC2=O)C1 (centres undefined)
 : -10% | -9% | . | -4.5%
COc1cc(C(=O)Nc2ccc(C(C)=O)cc2)c(Br)c(OC)c1OC
 : -22% | 3% | -2 | -3.0%
CCCn1c(-c2cccc(F)c2)nc2c1c(=O)[nH]c(=O)n2Cc1ccccc1
 : -7% | -7% | . | -4.9%
COc1ccc(CCNC(=O)c2n[nH]c3ccccc23)cc1
 : -30% | -11% | -3 | 1.2%
Cc1ccc(S(=O)(=O)N2CCOC2CNC(=O)C(=O)NCCCN2CCOCC2)cc1 (centres undefined)
 : 1% | -19% | . | 3.8%
COc1ccc(OC)c(CNC(=O)CCc2nc(-c3cccs3)no2)c1
 : -6% | 1% | -1 | -2.7%
COc1ccc(C(=O)N2CCN(CC(=O)N3CCOCC3)CC2)cc1
 : 0% | 0% | . | 0.3%
O=C(NC1CC1)C1CCN(C2CCN(C(=O)c3c(F)cccc3Cl)CC2)CC1
 : -1% | -20% | . | -4.3%
CCOc1cccc(=O)c2c(C)n(CC(=O)c3ccccc3)c(C)c12
 : 0% | ? | -1 | ?
Cn1nccc1/C=N\NC(=O)c1ccc(Cl)cc1
 : -11% | 3% | . | -0.6%
O=C(NCc1ccco1)c1cccc(S(=O)(=O)N2CCCCC2)c1
 : -4% | -5% | 1 | 0.1%
O=c1c2cc(Cl)ccc2[nH]c(=S)n1Cc1ccco1
 : -1% | -11% | 8 | -2.5%
Cc1sc2ncn(CC(=O)NCC(=O)N(C)C3CCCCC3)c(=O)c2c1C
 : 4% | -5% | 7 | ?
O=C(NCCCN1CCCCC1)c1ccc2c(c1)NC(=O)C(N1CCOCC1)S2 (centres undefined)
 : -5% | 23% | 2 | 0.0%
COc1ccccc1N(CC(=O)NC1CCCC1)C(=O)c1oc(C(C)(C)C)cc1C
 : 20% | -1% | 2 | 1.0%
NS(=O)(=O)c1ccc(CCNS(=O)(=O)c2ccc(Cl)s2)cc1
 : . | 8% | . | 3.1%
O=c1ccn(Cc2ccccc2)c2ccccc12
 : 12% | 0% | -6 | 0.6%
Cc1cc(OCC(=O)NCc2ccccn2)cc(C)c1Br
 : -22% | -9% | -2 | 1.1%
N/C(Cc1ccc([N+](=O)[O-])cc1)=N\OC(=O)c1ccc(Br)cc1
 : -7% | 2% | -2 | -0.1%
Cc1ccc(C(=O)Nc2ccccc2Sc2ccccc2)cc1
 : -36% | -5% | -2 | 3.4%
Cc1nc2c(Br)c(C)nn2c2c1CCC2
 : -9% | 6% | 16 | 3.6%
CC(C)c1ccc(NC2CCCN(C(=O)CCc3cn[nH]c3)C2)cc1 (centres undefined)
 : 0% | -11% | . | 1.6%

Compound profiles, as listed above:
Shown for `COc1ccc(C(=O)N2CCN(CC(=O)N3CCOCC3)CC2)cc1` = miR-21 FLuc = 0%; Rango release inh = 0%; GLA inh pH 4.5 = .; Rango complex inh = 0.3%
Shown for `CCCn1c(-c2cccc(F)c2)nc2c1c(=O)[nH]c(=O)n2Cc1ccccc1` = miR-21 FLuc = -7%; Rango release inh = -7%; GLA inh pH 4.5 = .; Rango complex inh = -4.9%

Back to the main list; the 4 compounds before the break are reprinted first.
Under each structure – miR-21 FLuc | Rango release inh | GLA inh pH 4.5 | Rango complex inh
N/C(Cc1ccc([N+](=O)[O-])cc1)=N\OC(=O)c1ccc(Br)cc1
 : -7% | 2% | -2 | -0.1%
Cc1ccc(C(=O)Nc2ccccc2Sc2ccccc2)cc1
 : -36% | -5% | -2 | 3.4%
Cc1nc2c(Br)c(C)nn2c2c1CCC2
 : -9% | 6% | 16 | 3.6%
CC(C)c1ccc(NC2CCCN(C(=O)CCc3cn[nH]c3)C2)cc1 (centres undefined)
 : 0% | -11% | . | 1.6%
O=C(CN1CCN(c2ccccc2F)CC1)c1c[nH]c2ccccc12
 : -1% | -18% | -16 | ?
Cc1cc(C)nc(N2CCN(c3ncnc4c3cnn4Cc3ccc(Cl)cc3Cl)CC2)n1
 : -1% | -17% | -15 | -0.1%
COc1cccc(NC(=O)CN(C)CC(=O)Nc2ccc(Cl)cc2[N+](=O)[O-])c1
 : 0% | -7% | -1 | 1.8%
Nc1nnc(SCc2nnc(-c3ccccc3)o2)s1
 : -4% | -10% | 1 | -2.2%
COc1cnn(-c2ccc(F)cc2)c(=O)c1Br
 : -3% | 3% | -6 | 1.3%
Cn1cc(C(=O)O)c(-c2ccc3c(c2)OCCCO3)n1
 : -3% | -1% | . | 7.2%
CN(C)S(=O)(=O)c1cccc(NC(=O)COC(=O)c2cc3ccccc3oc2=O)c1
 : -65% | 9% | -1 | -2.6%
CCCCCCCN1CCC(=O)N(CCO)CC1
 : -5% | -18% | . | 1.7%
CS(=O)(=O)c1ccccc1C(=O)Nc1nc2ccccc2[nH]1
 : 1% | 37% | 1 | -1.2%
CCOc1ccc(/C(O)=C2\C(=O)C(=O)N(c3cc(C)on3)C2c2ccccc2OC)cc1 (centres undefined)
 : 0% | 8% | 4 | 0.0%
COc1ccccc1C(=O)COC(=O)c1ccccc1O
 : -36% | 1% | -7 | 0.3%
CC(C)n1nnnc1C(c1ccc(F)cc1)N1CCN(C2CCCC2)CC1 (centres undefined)
 : -9% | -3% | -9 | -1.5%
Cc1ccc2[nH]c(C(=O)N/N=C/c3ccc([N+](=O)[O-])cc3)c(C)c2c1
 : 4% | 0% | . | 2.4%
COc1ccc(NC(=S)N(CCCN2CCOCC2)C(C)c2cc3ccccc3o2)cc1 (centres undefined)
 : -4% | 4% | -3 | 0.4%
O=C(CSc1nnc(COc2ccccc2)o1)N1CCN(c2ccccc2)CC1
 : -1% | 0% | 7 | -0.1%
COCCN(CCOC)c1cc(C)c(C#N)c2nc3ccccc3n12
 : -9% | ? | -1 | ?
CC(C)(C)OC(=O)[C@H](CCCCN)NC(=O)c1[nH]cnc1C(=O)N[C@@H](Cc1ccccc1)C(=O)OCc1ccccc1
 : . | -10% | . | 4.7%
COc1cc(-c2cc(=O)c3c(O)c(OC)c(OC)cc3o2)cc(OC)c1O
 : 0% | 3% | -12 | 0.0%
CCOc1ccc(CSC(CC(=O)O)C(=O)O)cc1 (centres undefined)
 : 0% | 7% | -13 | 1.6%
OC(COc1ccc2ccccc2c1)CN1CCOCC1 (centres undefined)
 : -44% | 2%&3% | 2 | 0.4%&2.8%
COc1ccc(CNC(=O)CNS(=O)(=O)c2cccc(C#N)c2)cc1OC
 : -2% | 14% | . | 2.9%
Cc1cc(Oc2cc(NN3CCCCC3)c([N+](=O)[O-])cc2[N+](=O)[O-])c(C(=O)c2ccccc2)cc1Cl
 : 0% | -10% | . | 2.0%
CC(=O)c1ccc(S(=O)(=O)N(C)CCCC(=O)NCc2ccc3c(c2)OCO3)cc1
 : . | -2% | . | -0.5%
C[C@H]1CN([C@@H](C)CO)C(=O)c2cc(NC(=O)NC3CCCCC3)ccc2O[C@H]1CN(C)C(=O)Nc1ccc(C(F)(F)F)cc1
 : . | -4% | . | 0.8%
CCc1ccc(NC(=O)C2(c3ccccc3)CC2(Cl)Cl)cc1 (centres undefined)
 : -12% | -14% | 3 | 2.7%
Cn1nccc1C(=O)N1CCN(S(=O)(=O)c2ccc(Br)s2)CC1
 : -12% | 0% | . | -0.4%
CCCn1cnc2c(SCc3ccccc3F)nc(N)nc21
 : . | 15% | . | -1.9%
CCOc1[nH]n(-c2ccc(Cl)cc2)c(=O)c1C=Nc1ccc(OC)cc1
 : -5% | 0% | 1 | -0.3%
CCCN(CCC)S(=O)(=O)c1ccc(C(=O)Nc2ccc(S(=O)(=O)Nc3nnc(CC)s3)cc2)cc1
 : -7% | -11% | . | -0.4%
COc1ccc(C)cc1NC(=O)c1ccccc1N(C)S(=O)(=O)c1ccccc1
 : 1% | -18% | . | 2.6%

Under each structure – miR-21 FLuc | Rango release inh | GLA inh pH 4.5 | Rango complex inh
CC(=O)N1CCN(S(=O)(=O)c2cccc(C(=O)Nc3ccccc3N3CCCC3)c2)CC1
 : . | 3% | . | -3.0%
COC(=O)Cn1ncc(N2C3CC(CC(C)(C)C3)C2C)c(Cl)c1=O (centres undefined)
 : -2% | -11% | 1 | -0.1%
O=C(CN1C(=O)C2CCCCC2C1=O)NC1CCCc2ccccc21 (centres undefined)
 : . | 1% | . | -0.6%
Cc1ccc2c(c1)C(c1ccncc1)=NNC(c1ccccc1)=N2
 : -56% | -12% | -3 | 2.8%
Cc1ccnc2nc(C(=O)OCC(=O)Nc3ccccc3C(C)(C)C)nn12
 : -1% | 10% | 6 | -3.2%
Cc1cc(C)n(C(=O)c2ccccc2[N+](=O)[O-])n1
 : 0% | 4% | 0 | -0.3%
CCCCn1c(=O)[nH]c(=O)c2c1nc(COC(=O)c1c(C)noc1C)n2CCC
 : -6% | -11% | -10 | ?
Cc1cc(C)c(C#N)c(SCc2cn3ccccc3n2)n1
 : -69% | -7% | 3 | -0.4%
O=C(c1ccc(F)cc1)N1CCN(Cc2ccccc2Br)CC1
 : -2% | -7% | 5 | -3.1%
O=C(NCCN1CCCC1)C1(S(=O)(=O)c2ccc(Cl)cc2)CC1
 : -10% | 1% | 7 | -2.0%
CCOC(=O)c1cc2c(=O)n3ccccc3nc2n(CC2CCCO2)c1=NC(=O)/C=C/c1ccccc1 (centres undefined)
 : 4% | ? | 20 | ?
CCC(C)(C)NC(=O)C(c1ccc(OC)cc1)N(Cc1cccs1)C(=O)CCC(=O)Nc1cc(C)on1 (centres undefined)
 : 12% | 38% | -19 | -1.8%
CCC(=O)Nc1nonc1-c1nc2ccccc2n1N(C(=O)CC)C(=O)CC
 : -7% | -6% | -2 | -0.7%
COc1cccc2oc3cc(C#CC4(O)CCCCC4)ccc3c(=O)c12
 : -6% | -3% | . | -3.9%
Cn1c(SCC(=O)N/N=C/C=C/c2ccccc2[N+](=O)[O-])nc2ccccc21
 : -12% | -8% | -7 | -0.5%
COc1cccc(NC(=O)Cc2nnc(SCC(=O)NC3=NCCS3)n2C)c1
 : 0% | 1% | . | 4.6%
CC(C)CNC(=O)c1cccc(NC(=O)COc2ccc([N+](=O)[O-])cc2)c1
 : 24% | 1% | 6 | -4.8%
NNC(=S)NC1CCCCC1
 : -2% | -10% | 3 | -6.4%
O=C(O)c1cccc(NS(=O)(=O)c2ccc3c(c2)OCCCO3)c1
 : 1% | 4% | 4 | 0.0%
Cc1nn(-c2ccccc2)c(Cl)c1/C=N/Nc1nc2ccccc2n1C
 : -22% | -15% | -16 | -2.7%
COC(=O)c1ccc2c(c1)NC(=O)C(N1CCCC1)S2 (centres undefined)
 : -4% | -8% | -3 | 6.2%
O=C(CN1C(=O)NC2(CCCCC2)C1=O)NNC(=O)C1CC1
 : . | 25% | . | 7.7%
CCC(C(=O)O)n1cnc2scc(-c3ccc(C)c(C)c3)c2c1=O (centres undefined)
 : -3% | 2% | . | -5.1%

Assay outcomes: PubChem BioAssay, National Center for Advancing Translational Sciences (NCATS)
